# Vc quorum ag: inducers of Vibrio cholerae quorum light production without autoinducers | V. cholerae BH1578 lux reporter, luminescence, 6 h | activation, % at 18.7 µM | hit rate 0.16% among 350,000 | AID 588436; in the data active means activation mostly above about 9.7%, no sharp cut-off; further: not every result past the cut was called active; inactives centre near 0; reference of the scale not given here
# CCHF vOTU inh: blocks the CCHF virus ovarian tumor domain protease | CCHFV vOTU protease, Pep-AMC fluorescence | inhibition, % at 11.5 µM | hit rate 0.55% among 370,000 | AID 651958; in the data active means inhibition above about 30%; further: 0% = vehicle wells with enzyme and 100% = no enzyme wells
# Yp Topo-I inh: inhibitors of Yersinia pestis topoisomerase I. Y. pestis Topo-I cleavage product accumulation, plate reader. activity, % at 10 µM. hit rate 0.064% among 360,000. AID 504884; in the data active means activity above about 50%, passing the limit was not always enough; further: inactives centre near 2
# 3CLpro inhibitor: SARS-CoV 3CLpro protease inhibition | P0C6X7 | recombinant SARS-CoV 3CLpro, quenched FRET peptide cleavage | inhibition, % at 6 µM | hit rate 0.14% among 290,000 | AID 1706; in the data active means inhibition above about 12%
# VHR inh abs: inhibitors of human VHR1 phosphatase (DUSP3); AID 1654; hit rate 0.52% among 290,000; P51452; inhibition, % at 13.3 µM; recombinant VHR phosphatase, pNPP absorbance; in the data active means inhibition above about 50%; further: some compounds called inactive have numbers as strong as hits
# Target sequence (P51452 whole entry, looked up): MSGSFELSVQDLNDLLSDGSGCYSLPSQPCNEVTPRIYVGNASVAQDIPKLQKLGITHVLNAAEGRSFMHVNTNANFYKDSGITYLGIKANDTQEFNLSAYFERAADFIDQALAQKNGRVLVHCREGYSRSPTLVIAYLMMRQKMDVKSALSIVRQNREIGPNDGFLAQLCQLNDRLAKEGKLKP
# TcdB GH inh: blocks C. difficile toxin B glycohydrolase activity. hit rate 0.24% among 350,000. TcdB glycohydrolase enzymatic assay, plate reader. P18177. inhibition, % at 9.99 µM; in the data active means inhibition above about 10%
# PrPC surface inh: cell surface PrPC inhibition, primary TR-FRET screen. TR-FRET read-out. inhibition, % at 13.8 µM. AID 720596. hit rate 0.43% among 370,000. P04156; in the data active means inhibition above about 24%; further: 0% = median of the test wells and 100% = reference compound wells
# Rv3671c protease: Rv3671c (M. tuberculosis) protease inhibition; P9WHR9; inhibition, % at 5.96 µM; AID 2606; hit rate 0.048% among 320,000; in the data active means inhibition above about 38%;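 further: extracellular domain of Rv3671c used as enzyme; 0% = enzyme with DMSO and 100% = no enzyme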
# Target sequence (P9WHR9 whole entry, looked up, the tested form may be a part): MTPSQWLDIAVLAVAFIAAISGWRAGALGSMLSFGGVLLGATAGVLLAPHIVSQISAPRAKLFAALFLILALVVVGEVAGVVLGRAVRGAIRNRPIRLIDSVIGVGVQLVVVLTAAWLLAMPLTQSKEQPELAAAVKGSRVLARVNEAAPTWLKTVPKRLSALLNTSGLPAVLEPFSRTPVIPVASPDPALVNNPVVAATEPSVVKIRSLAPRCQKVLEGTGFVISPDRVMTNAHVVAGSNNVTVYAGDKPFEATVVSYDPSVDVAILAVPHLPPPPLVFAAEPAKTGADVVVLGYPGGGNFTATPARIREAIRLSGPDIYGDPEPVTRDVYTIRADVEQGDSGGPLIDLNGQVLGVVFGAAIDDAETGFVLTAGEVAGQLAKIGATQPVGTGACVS
# SSB-PriA inh: blocks PriA binding to SSB C-terminal tail. AlphaScreen SSBct-PriA binding, biotinylated peptide. inhibition, % at 33 µM. hit rate 0.6% among 430,000. AID 1272365; in the data active means inhibition mostly above about 37%, no sharp cut-off; inactive means mostly below about 20%;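 further: plate controls were negative control peptide for no effect and reference peptide for full effect; strong numbers were not always called active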
# Numbers without * were called inactive; i = inactive; / = not tested or not shown; & = joins results of further samples. A portion of the library. The share of hits here may be higher or lower than overall.
SMILES,Vc quorum ag,CCHF vOTU inh,Yp Topo-I inh,3CLpro inhibitor,VHR inh abs,TcdB GH inh,PrPC surface inh,Rv3671c protease,SSB-PriA inh
Cc1cnc(CN(C)C(=O)c2ccc3oc(Cc4ccccc4)nc3c2)[nH]1,-0.3,-14,6,-3,19,1.1,7,-6,35
COc1ccc(OCCSc2nnnn2C2CCCCC2)cc1,0.6,3,32,2,-6,/,5,-2,-57
O=C(COc1ccccc1[N+](=O)[O-])Nc1ccc(Br)cc1,0.8,-6,0,5,-13,0.6,-2,-2,5
O=C(CSc1n[nH]c(-c2cccnc2)n1)Nc1ccccc1C(F)(F)F,-4.8,8,-3,-2,39,-9.5,14,-10,-5
CCn1c2ccccc2c2cc(NC(=O)C(C)C)ccc21,0.9,-1,3,1,19,/,2,3,-5
O=C(C1CCN(S(=O)(=O)c2ccccc2F)CC1)N1CCN(Cc2ccc3c(c2)OCO3)CC1,-3.9,-4,21,/,/,3.9,9,2,-1
Cn1c(CCN2CCN(c3ccccc3)CC2)nc2cc(NC(=O)c3ccco3)ccc21,-0.3,-2,4,-6,44,/,-14,-2,11
CC1(C)C([N+](=O)[O-])C(c2ccccc2O)NC(c2ccccc2O)C1[N+](=O)[O-] (stereo not given),i,10,-7,8,-1,1.4,-7,-5,1
Cc1ccccc1CNc1ccc(C(CC(N)=O)NC(=O)c2ccccc2)cc1[N+](=O)[O-] (stereo not given),2.0,16,25,/,15,0.8,-1,-25,-11
O=C(NCCCn1ccnc1)c1cc2c(ccc3ccccc32)o1,/,-20,/,-1,43,1.9,-3,7,-8
Cc1ccc(-c2onc3ccc(C(=O)O)cc23)cc1,i,3,5,-3,11,-0.1,-1,-3,31
CCC(C)(C)NC(=O)CC(c1ccc(OC)cc1)n1cccc1 (stereo not given),-5.3,-2,1,3,0,/,-7,-8,14
Cc1cc(C)nc(N/N=C/C2=C(N3CCOCC3)C(=C/c3ccccc3)/CC2)n1,i,-1,0,4,5,/,1,2,/
CC(C)(C)Cc1nnc(NS(=O)(=O)c2ccc([N+](=O)[O-])cc2)s1,-1.6,-8,13,3,-2,1.0,-11,-7,0
O=C(CNC1CCCC1)Nc1ccc(N2CCCCCC2)cc1,-0.3,2,2,6,13,-7.1,-2,8,54
CC(=O)c1ccc(NC(=O)NNS(=O)(=O)c2ccc([N+](=O)[O-])cc2)cc1,0.0,20,0,1,-9,-0.1,-25,9,-10
O=C(COC(=O)CCc1ccccc1)Nc1ccc(F)cc1Cl,-0.2,-15,6,3,-11,2.1,4,-4,-24
O=C(NC1=NCCS1)c1cc(-c2ccc(-c3ccccc3)cc2)nc2ccccc12,-0.1,6,-4,0,-13,0.4,1,-61,-11
CC(=NNC(=O)c1nnn(-c2nonc2N)c1CSc1ccc(Cl)cc1)c1cccnc1,/,/,/,/,/,/,/,/,7
CCOC(=O)c1c(C)[nH]c(C)c1S(=O)(=O)NCC1CCN(Cc2ccccc2OC)CC1,3.3,-4,3,-1,0,2.2,-5,1,-10
O=C(N/C(=C/c1ccc(Cl)cc1)C(=O)N1CCOCC1)c1ccccc1,i,0,10,6,33,3.8,-2,-6,3&-10
COc1cc(NS(C)(=O)=O)c(OC)cc1NC(=O)c1cccc(F)c1,6.7,-12,7,3,8,0.1,-4,1,-2
COc1ccc([C@H]2CC(=O)C=C(/C=C/c3ccccc3)C2)cc1,-7.1,1,13,/,/,0.7,0,-8,-10
CC(C)COC(=O)Nc1nnc(SCCOc2ccccc2)s1,2.8,-4,13,5,11,/,3,5,-11
O=C(O)CSc1nnc(Cn2c(=O)sc3ccccc32)n1-c1cccc(Cl)c1,-0.4,/,4,-5,17,/,/,7,-1
C/C(N)=C(/C#N)C(=O)COC(=O)CNC(=O)c1ccc(Cl)cc1Cl,-0.3,1,2,1,9,2.7,-2,1,-9
O=C(CCN1C(=O)c2ccccc2C1=O)N1CCN(C2c3ccccc3-c3ccccc32)CC1,13,-12,25,4,-8,/,-10,-5,-4
O=C1CSc2cc(Cl)ccc2N1,/,2,0,/,/,0.6,8,/,-10
O=C(N/N=C/c1ccc(O)c(O)c1)c1ccc(CSc2cccc3cccnc23)cc1,-0.3,10,-11,-3,15,/,2,0,/
CCCCn1c(N)c(N(CC(C)C)C(=O)c2ccc(S(=O)(=O)N3CCCCC3)cc2)c(=O)[nH]c1=O,i,0,0,/,/,0.9,-2,0,-4

# Ten structures out of the list, sorted by length of the SMILES, rising.
SMILES,Vc quorum ag,CCHF vOTU inh,Yp Topo-I inh,3CLpro inhibitor,VHR inh abs,TcdB GH inh,PrPC surface inh,Rv3671c protease,SSB-PriA inh
Cc1ccc(-c2onc3ccc(C(=O)O)cc23)cc1,i,3,5,-3,11,-0.1,-1,-3,31
O=C(CNC1CCCC1)Nc1ccc(N2CCCCCC2)cc1,-0.3,2,2,6,13,-7.1,-2,8,54
CCC(C)(C)NC(=O)CC(c1ccc(OC)cc1)n1cccc1 (stereo not given),-5.3,-2,1,3,0,/,-7,-8,14
O=C(COc1ccccc1[N+](=O)[O-])Nc1ccc(Br)cc1,0.8,-6,0,5,-13,0.6,-2,-2,5
O=C(NC1=NCCS1)c1cc(-c2ccc(-c3ccccc3)cc2)nc2ccccc12,-0.1,6,-4,0,-13,0.4,1,-61,-11
Cn1c(CCN2CCN(c3ccccc3)CC2)nc2cc(NC(=O)c3ccco3)ccc21,-0.3,-2,4,-6,44,/,-14,-2,11
CC(=O)c1ccc(NC(=O)NNS(=O)(=O)c2ccc([N+](=O)[O-])cc2)cc1,0.0,20,0,1,-9,-0.1,-25,9,-10
O=C(CCN1C(=O)c2ccccc2C1=O)N1CCN(C2c3ccccc3-c3ccccc32)CC1,13,-12,25,4,-8,/,-10,-5,-4
Cc1ccccc1CNc1ccc(C(CC(N)=O)NC(=O)c2ccccc2)cc1[N+](=O)[O-] (stereo not given),2.0,16,25,/,15,0.8,-1,-25,-11
CC1(C)C([N+](=O)[O-])C(c2ccccc2O)NC(c2ccccc2O)C1[N+](=O)[O-] (stereo not given),i,10,-7,8,-1,1.4,-7,-5,1

# Additional records:
SMILES,Vc quorum ag,CCHF vOTU inh,Yp Topo-I inh,3CLpro inhibitor,VHR inh abs,TcdB GH inh,PrPC surface inh,Rv3671c protease,SSB-PriA inh
O=C(CNC(=O)c1cccc([N+](=O)[O-])c1)OCCCC(=O)c1ccc(F)cc1,-0.7,-5,6,/,/,-3.4,-16,1,-8
COc1cccc(C(=O)NN/C(C)=C/C(=O)C(F)(F)C(F)(F)C(F)(F)F)c1,i,-1,2,2,-5,/,9,-2,/
CCOc1cc(/C=N/NC(=O)c2cccc(S(=O)(=O)N3CCCC3)c2)ccc1OCC(=O)N(C)C,-4.2,9,12,/,/,2.0,-4,0,/
COc1ccc(C2=NN(C)C(=NCc3ccccc3)SC2)cc1,-0.4,-6,31,0,21,0.9,2,2,-60
c1csc(-c2ccn[nH]2)c1,i,-5,-1,-1,13,-3.5,7,2,2&3&0
CN1CC[C@]23c4c5ccc(O)c4OC2C(O)C=CC3[C@H]1C5 (stereo not given in full),-0.3,10,-9,/,/,-1.0,6,6,7
Brc1ccc(CSc2ccc3nnc(-c4cccnc4)n3n2)cc1,i,-8,14,2,26,1.2,7,8,4
O=C(N/C(=C\c1ccc([N+](=O)[O-])cc1)C(=O)N1CCOCC1)c1ccccc1,-0.6,14,10,5,0,0.9,-27,2,-3
N#C/C(=C/c1cccnc1)c1ccccc1,0.0,9,-1,0,-8,-6.6,-10,-4,-11
Cc1c(OCC(=O)OC(C)C)ccc2c3c(c(=O)oc12)CCC3,6.2,9,5,3,0,/,4,-5,-2
CN(C)S(=O)(=O)c1cc(C(=O)Nc2ccn(C)n2)c(Cl)cc1Cl,-7.1,4,7,/,/,1.3,0,-10,-2
O=P(C(Cl)Cl)(N1CCCCC1)N1CCCCC1,/,-8,7,-1,19,/,1,5,-8
CC1CCCC(C)N1C(=O)Cn1cc(/C=C2/C(=O)Nc3ccccc32)c2ccccc21 (stereo not given),-0.5,/,-7,4,39,/,/,-4,8
O=C(CCC1CCCN(C(=O)c2cccc(F)c2)C1)N1CCN(c2ccccn2)CC1 (stereo not given),/,12,14,3,10,1.2,0,0,5
CCCc1c(O)nc(SC2CC(=O)N(c3ccc(C)c(Cl)c3)C2=O)[nH]c1=O (stereo not given),0.7,-1,-2,/,/,0.9,4,-2,-2
COc1ccccc1C(=O)Nc1ccc2ccccc2c1,-0.6,16,1,/,/,1.5,-12,-5,-15
CCn1c(CNc2ccc(OC)cc2)nnc1SCC(=O)N1CCCc2ccccc21,1.3,2,-2,0,-6,/,3,-4,19
COc1cccc(-n2c([S-])c(C(=O)Nc3ccc(S(=O)(=O)N4CCOCC4)cc3)[n+]3cc(C(N)=O)ccc23)c1,-0.4,-7,1,3,19,0.1,-5,-4,-5
CN1C(=O)/C(=C/C=C/c2ccco2)C(=O)NC1=S,0.1,-1,-2,0,-1,0.4,-2,-25,-5
O=C(NC1CCS(=O)(=O)C1)c1c(NC(=O)C2COc3ccccc3O2)sc2c1CCCC2 (stereo not given),i,14,11,0,12,/,10,-14,-13
CCc1ccc(Cn2nnc(C(=O)NCc3ccccc3OC)c2N)cc1,-0.2,3,8,7,29,0.9,-2,-6,-4
Cc1ccccc1NC(=O)Nc1ccccc1N1CCCCC1,-0.3,-4,14,7,-12,-0.4,4,6,3
Nc1c(SCCC(=O)O)ccc2c1C(=O)c1ccccc1C2=O,i,20,-1,-2,9,-0.7,-48,-55,17
FC(F)(F)c1cc(-c2ccco2)nc2ncnn12,-0.3,-46,2,-3,-2,-0.2,-9,0,-7
Cc1c(C(=O)N2CCCCC2)c(S(=O)(=O)NCCc2ccc(Cl)cc2)c(C)n1C,0.2,7,11,1,-17,1.9,4,10,10
Cc1ccc(-c2cc(C(F)F)nc(N3CCOCC3)n2)cc1,-0.2,-14,1,1,22,1.2,-5,-1,-9
COC(=O)C1=C(C(=O)OC)C(c2cc(Cl)ccc2O)c2sc(=O)[nH]c2S1 (stereo not given),-0.5,/,-7,-6,-8,/,/,-8,-8
O=C(NCc1cn(-c2ccccc2)nc1-c1ccccc1)c1cccc([N+](=O)[O-])c1,i,12,-13,2,1,1.7,-2,-32,15
Cc1nnnn1-c1cccc(C(=O)O)c1,i,-6,0,1,-2,/,0,-2,4
O=C(/C=C\c1ccco1)Nc1nc(-c2ccccc2)cs1,-0.1,4,-5,1,-2,1.2,-7,2,3
COc1cccc(CN(C)CC(=O)Nc2cccc(C(F)(F)F)c2)c1OC,-0.6,10,3,1,6,-0.8,10,1,-13
COc1cc2ccccc2cc1C(=O)Nc1ccc(Cc2ccncc2)cc1,i,10,20,1,23,/,30*,-18,-2
O=C(NCc1ccc2c(c1)OCO2)C(=O)NCC1OCCN1S(=O)(=O)c1ccccc1 (stereo not given),i,16,13,-1,18,0.1,1,3,-13
Cn1c(Nn2cnnc2)nc2ccccc21,-0.2,5,9,4,36,/,1,-1,-10
O=c1c2cc(-c3ccccc3)sc2nc2n1N=C(c1cccs1)CS2,-1.1,-19,-3,-5,24,-1.8,-5,-8,-8
CCOc1ccccc1CNC(=O)Cn1ccc2cc(S(=O)(=O)N3CCC(C)CC3)ccc21,i,/,36,0,3,/,/,-11,-1
Cc1ccc(-c2nc3[nH]c(=O)cc(NC(=O)C(C)C)n3n2)cc1,-0.3,-8,2,5,4,0.1,-4,0,5
Cc1cc(Cl)ccc1C(=O)C1CCCN(C(=O)c2cscn2)C1 (stereo not given),-0.3,9,-1,3,31,0.0,2,3,-19
O=C(c1ccc(Br)cc1)c1cc(-c2ccccn2)c(N2CCOCC2)s1,i,3,7,-1,26,/,-12,10,-5
CC(/C=C/c1ccc2c(c1)OCO2)=NNC(=O)COc1ccc(C)cc1,/,/,/,/,/,/,/,/,-8
Cc1cccc(C(=O)OC2CCN(C)CC2)c1,i,0,3,-1,7,1.2,-10,2,-3
CCc1ccc(N(CC(=O)NC(C)C)C(=O)CCC(=O)Nc2ccccn2)cc1,i,2,9,-1,20,0.0,3,-8,0
COc1ccc(CCN(C)C(=O)c2c(C)nn(CC(C)C)c2Cl)cc1OC,i,2,-6,0,18,0.0,1,0,13
Cc1ccccc1NC(=S)N(CCCN1CCOCC1)Cc1cccnc1,i,-9,4,2,33,0.7,-2,-4,-11
C/C(=N\NC(=O)CCn1nc(C)cc1C)C(C)(C)C,i,4,-5,-3,23,/,-1,-10,/

# Screens (PubChem BioAssay)
